Screens as filed in PubChem BioAssay.
Beta apoptosis = inhibitors of cytokine-induced beta cell apoptosis, primary screen, luminescence; INS-1E cytokine-induced death, ATP luminescence, 48 h; percent of positive-control rescue, neutral wells zero; 0.8% of 300,000 active; protection from apoptosis, % (concentration not given with the values);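 active means all replicates at 75% or more, or half of them and the mean; inconclusive means half reach 75% but not the mean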;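 further: 0% = cytokine-treated negative control wells and 100% = positive control rescue; higher means more ATP so stronger rescue from cytokine killing; wells of about 40 µL received 100 nL stock; the first replicate is given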
T cruzi inh = inhibitors of intracellular T. cruzi growth, primary screen, luminescence, NIH3T3 host cells | inhibition, % (concentration not given with the values) | 1.4% of 300,000 active | T. cruzi beta-gal in NIH3T3, 90 h | AID 1885, 2009;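 active means mean inhibition across valid replicates above about 55%, limit read from the data; inconclusive means mean below that limit but half or more replicates reach it; inactive means mean below it, under half of replicates reach it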;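 further: signal also drops with host cell toxicity which is not excluded here; 0% = plate median of DMSO wells and 100% = zero luminescence signal; higher percent means less beta-gal luminescence so fewer parasites; stock transfer was 50 nL into about 50 µL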
Vif A3G = inhibitors of Vif binding to APOBEC3G peptide, primary screen, biochemical, TR-FRET, GST-Vif 1-94, biotin-A3G peptide, dose response retest (AID 1117319); Virion infectivity factor (Human immunodeficiency virus type 1 group M subtype B (isolate …; TR-FRET GST-Vif / biotin-A3G peptide binding; higher % means a stronger effect; test concentration not given here; strong numbers were not always called active; inhibition, %, or IC50 in µM where a hit was titrated; 0.57% of 260,000 active;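 active means above the screen mean plus three standard deviations and confirmed in dose response; inconclusive means results disagree or hit not tested in dose response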;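 further: Vif residues 1-94 fused to GST binding biotinylated APOBEC3G peptide 110-148; 0% = full assay without inhibitor and 100% = GST in place of GST-Vif; retest series ran down from 100 µM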
Calb FLC = C. albicans growth inhibition with fluconazole, primary screen, CaCi-2 strain, Alamar Blue fluorescence; C. albicans CaCi-2 (fluconazole-resistant clinical isolate) + fluconazole, 48 h; growth inhibition, % (concentration not given with the values); 0.57% of 300,000 active; AID 1979, 2009;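 active means most replicates above 75%; inconclusive means exactly half above 75%; inactive means most below 75%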;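 further: all wells also contain fluconazole at 8 µg/ml as a sub-toxic cotreatment; 0% = median of DMSO wells and 100% = median of geldanamycin control wells; wells of about 8 µL received 7.5 nL stock; the first replicate is given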
MLL AF4-AF9 inh = inhibitors of AF4 peptide binding to AF9, primary screen, biochemical, AlphaScreen, biotin-AF4 peptide, FLAG-AF9, single point; 0.47% of 350,000 active; AID 651704, 2012; inhibition, % at 10 µM;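 active means every replicate reaching a set inhibition limit, whatever the replicate mean, cut at about 25% in these data; inconclusive means mean inhibition reaches that limit but some replicates miss it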;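 further: 0% = plate neutral control median and 100% = total signal loss; the record names both 10 and 1 µM as test concentration; the first replicate is given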
LANA-H2B inh = blockers of LANA interaction with H2A/H2B – biochemical, FP readout, HTS, primary screen; AID 2629, 2010; cell-free LANA-H2A/H2B peptide, fluorescence polarization; 0.6% of 320,000 active; inhibition, % (concentration not given with the values); in the data active means inhibition mostly above about 10%, no sharp cut-off; inactive means mostly below about 6.7%;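 further: stock transfer was 7.5 nL into about 10 µL; 0% = median of vehicle wells and 100% = median of positive control wells; one replicate is shown; the record names a cut of 25% in any replicate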
Target sequence (Q9QR71 whole entry, looked up): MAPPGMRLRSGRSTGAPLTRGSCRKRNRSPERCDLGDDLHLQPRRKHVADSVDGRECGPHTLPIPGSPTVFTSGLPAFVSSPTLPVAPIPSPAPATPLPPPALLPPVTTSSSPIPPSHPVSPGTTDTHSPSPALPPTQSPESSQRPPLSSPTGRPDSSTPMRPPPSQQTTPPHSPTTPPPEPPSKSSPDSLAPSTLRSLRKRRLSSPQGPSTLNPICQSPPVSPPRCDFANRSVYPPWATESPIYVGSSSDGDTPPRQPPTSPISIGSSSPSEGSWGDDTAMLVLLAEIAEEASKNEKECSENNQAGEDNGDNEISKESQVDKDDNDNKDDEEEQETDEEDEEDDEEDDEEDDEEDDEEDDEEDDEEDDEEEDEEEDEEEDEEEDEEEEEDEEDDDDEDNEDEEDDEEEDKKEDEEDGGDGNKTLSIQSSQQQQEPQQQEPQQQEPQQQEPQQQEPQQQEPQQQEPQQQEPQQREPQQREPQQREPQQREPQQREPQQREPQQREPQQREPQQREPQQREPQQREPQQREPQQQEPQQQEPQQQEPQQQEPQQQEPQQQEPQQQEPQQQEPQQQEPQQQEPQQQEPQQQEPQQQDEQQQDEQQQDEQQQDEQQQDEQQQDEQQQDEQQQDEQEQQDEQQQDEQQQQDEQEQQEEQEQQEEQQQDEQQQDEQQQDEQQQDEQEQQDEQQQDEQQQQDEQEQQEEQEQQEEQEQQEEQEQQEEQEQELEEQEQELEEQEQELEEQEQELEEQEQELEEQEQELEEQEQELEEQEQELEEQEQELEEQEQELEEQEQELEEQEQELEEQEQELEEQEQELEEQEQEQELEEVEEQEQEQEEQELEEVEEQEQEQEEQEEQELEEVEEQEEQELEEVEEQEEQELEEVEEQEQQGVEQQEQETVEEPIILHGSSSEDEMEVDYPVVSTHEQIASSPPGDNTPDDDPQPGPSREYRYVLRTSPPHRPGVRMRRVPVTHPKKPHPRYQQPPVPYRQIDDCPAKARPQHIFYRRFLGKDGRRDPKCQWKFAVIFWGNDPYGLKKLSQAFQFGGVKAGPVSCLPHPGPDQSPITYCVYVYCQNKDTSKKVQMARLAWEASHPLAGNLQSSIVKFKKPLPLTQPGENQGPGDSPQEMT
RanGTP-Imp inh = inhibitors of RanGTP-importin-beta interaction, primary screen, biochemical, FRET, CFP-Ran, YFP-importin-beta, homogeneous; Ran GTPase (GTP-bound) - importin-beta complex; inhibition, % (test concentration not listed); 1.1% of 300,000 active; cell-free CFP-Ran/YFP-importin-beta FRET ratio;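 active means most replicates above 15%; inconclusive means exactly half above 15%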;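 further: 0% = DMSO wells and 100% = Ran loaded with GDP instead of GTP; wells of about 40 µL received 100 nL stock; the first replicate is given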
Bfl-1 A1 inh = caspase 3/7 activation in MEF A1-2A-BIM cells, primary screen, A1 inhibitor project, cell-based, luminescence, HTS | 0.066% of 330,000 active | Caspase-Glo 3/7 luminescence, 3 h; percent of clofoctol response, vehicle zero | caspase activation, % (test concentration not listed);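 active means over half of replicate activation scores above 10%, or exactly half above 10 with the replicate mean above 10; inconclusive means replicate mean below 10 yet half the replicates above 10; inactive means over half of replicates below 10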;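 further: wells of about 30 µL received 50 nL stock; many hits fall short of the cut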
An asterisk follows results filed as active; ? = inconclusive; · = not tested or not shown.

1) CCOC(=O)CSc1ccc2nnc(-c3cccnc3)n2n1
2) S=c1nc(C23CC4CC(CC(C4)C2)C3)nc2sccn12
3) Cc1cccc(N=N/C(=C\O)C(=O)c2ccc(Br)cc2)c1
4) CCn1cc(C2C3=C(CC(C)(C)CC3=O)N(c3ccccc3)C3=C2C(=O)CC(C)(C)C3)c(C)n1
5) CC(Sc1nnnn1-c1ccc(O)cc1)c1nc2ccccc2c(=O)[nH]1 (stereo not given)
6) O=C(Cn1nnc(-c2ccccc2)n1)N/N=C/c1cc([N+](=O)[O-])ccc1O
7) COc1cccc(C(=O)Nc2cccc(C(=O)N3CCOCC3)c2)c1
8) Cc1cc(C)cc(N2CC(C)Cn3c2nc2c3c(=O)[nH]c(=O)n2C)c1 (stereo not given)
screen / no.,1,2,3,4,5,6,7,8
Beta apoptosis,-2.4,-1.2,·,3.4,-6.4,-3.0,-1.9,0.3
T cruzi inh,0.8,-7.5,-13.7,24.5,-4.5,-18.3,-4.1,-9.6
Vif A3G,6.5%,·,0.2%,-7.6%,1.6%,·,2.5%,-6.2%
Calb FLC,-3.1,-17.6,-11.9,-6.9,-3.1,-3.4,1.0,-3.8
MLL AF4-AF9 inh,0.6,·,1.9,·,0.7,2.8,·,-0.2
LANA-H2B inh,4.6,2.0,-8.7,6.5,1.2,-6.3,2.7,-0.9
RanGTP-Imp inh,0.4,-6.0,?,?,-2.6,-0.5,?,0.0
Bfl-1 A1 inh,0.4,0.3,-0.6,0.6,-1.1,-1.4,0.1,1.4

9) Cc1csc(NC(=O)C(Cc2ccccc2)n2cccc2)n1 (stereo not given)
10) Cc1cc(C(=O)N2CCCC(N3CCN(c4cccc(Cl)c4)CC3)C2)n(C)n1 (stereo not given)
11) Cc1ccc(-n2ncc(C(=O)Nc3cc(Cl)cc(Cl)c3)c2C2CCNCC2)cc1C
12) Cc1ccc(S(=O)(=O)N2CCCC2C(=O)Nc2ccc(O)cc2)cc1 (stereo not given)
13) COc1cccc(C(=O)Nc2cc(Cl)c(O)c(Cl)c2)c1
14) COc1ccc(NC(=O)n2nc(OC(=O)c3cccs3)cc2N)cc1
15) CN1/C(=C\C(=O)c2cccnc2Cl)C(C)(C)c2ccccc21
16) CCOC(=O)C1=C(N)Oc2ccc3ccccc3c2C1c1ccc(O)cc1 (stereo not given)
screen / no.,9,10,11,12,13,14,15,16
Beta apoptosis,-4.0,0.5,·,-2.4,-13.5,-1.3,11.7,2.1
T cruzi inh,-1.9,5.0,54.9*,-1.1,-0.6,-0.6,-0.7,25.2
Vif A3G,5.4%,-2.6%,·,27.5%,4.0%,3.4%,0.1%,8.6%
Calb FLC,1.6,17.4,19.0,-3.9,-10.6,-12.0,?,14.0
MLL AF4-AF9 inh,13.2,0.5,9.3,-7.2,0.5,-1.1,5.0,3.6
LANA-H2B inh,-3.7,-2.9,·,0.5,-3.1,-8.0,5.8,-3.6
RanGTP-Imp inh,2.2,-0.8,0.9,2.2,?,?,-0.2,4.6
Bfl-1 A1 inh,-0.2,-1.4,·,0.2,-12.9,-5.4,-3.7,1.1

17) COC(=O)c1cc(-c2ccc(Br)cc2)c2c(=O)[nH]c(=O)n(C)c2n1
18) CS(=O)(=O)c1ccc2nc(NC(=O)c3ccc(N4C(=O)CCC4=O)cc3)sc2c1
19) CCCN(C(=O)CCSc1ccc(F)cc1)c1c(N)n(Cc2ccccc2)c(=O)[nH]c1=O
20) CCn1nnnc1SCC(=O)Nc1ccc2c(c1)OCO2
21) Cc1ccc(C)c(NC(=O)c2cc(S(=O)(=O)N3CCOCC3)cn2C)c1
22) C=CCn1c[n+](CC(=O)c2ccc(Br)s2)c2ccccc21
23) Cc1cc(NC(=O)NC2CC(=O)N(c3ccc4c(c3)OCCO4)C2)no1 (stereo not given)
24) CCc1ccc(CNC(=O)c2ccc(NC(=O)C3=CSCCO3)cc2)cc1
screen / no.,17,18,19,20,21,22,23,24
Beta apoptosis,6.1,-9.1,-4.5,-7.1,-1.2,-3.6,-0.3,·
T cruzi inh,5.1,6.9,-7.7,-14.8,-1.3,9.6,-5.9,-5.9
Vif A3G,-2.9%,-25.3%,·,-3.0%,·,8.8%,16.4%,·
Calb FLC,-2.1,-5.3,2.4,4.9,-5.5,37.6,0.3,-3.8
MLL AF4-AF9 inh,-3.7,·,-1.2,·,-9.3,5.9,-15.2,2.0
LANA-H2B inh,-2.2,1.1,-3.2,-0.4,1.1,0.0,-0.3,-1.9
RanGTP-Imp inh,-0.2,-3.4,6.4,3.3,0.7,5.2,7.8,1.8
Bfl-1 A1 inh,0.0,0.4,0.9,0.2,0.3,0.6,-0.2,1.5

Down the list, quoted from above:
Compounds 17–24 in LANA-H2B inh, in turn: -2.2, 1.1, -3.2, -0.4, 1.1, 0.0, -0.3, -1.9
Compounds 17–24 in Bfl-1 A1 inh, in turn: 0.0, 0.4, 0.9, 0.2, 0.3, 0.6, -0.2, 1.5

Next section:
25) COc1ccccc1OCC(=O)Nc1ccc2c(c1)OCO2
26) Cc1ccc(NC(=O)/C(=C/c2ccco2)c2ccccc2)c(C)c1
27) CSc1ccc(S(=O)(=O)N2CCC(C(=O)NCC3CCCO3)CC2)cc1 (stereo not given)
28) CCOC(=O)C1CCN(c2ccc([N+](=O)[O-])cc2S(=O)(=O)N2CCOCC2)CC1
29) Cc1cccc(-c2nc3ccccc3c(=O)n2NC(=O)c2cccnc2Cl)c1
30) O=C(CSc1nnc(-c2ccc(O)cc2)o1)Nc1ccccc1
screen / no.,25,26,27,28,29,30
Beta apoptosis,2.9,-1.7,-1.4,-2.6,-6.9,-4.4
T cruzi inh,3.0,1.1,-8.6,-17.8,-16.0,-19.1
Vif A3G,·,1.1%,·,3.5%,·,·
Calb FLC,-19.7,1.1,7.6,8.0,-39.1,-6.1
MLL AF4-AF9 inh,?,·,0.1,5.0,-2.1,1.5
LANA-H2B inh,1.3,-3.4,1.1,-3.5,-1.0,2.1
RanGTP-Imp inh,-1.9,3.4,2.8,1.7,5.9,-7.1
Bfl-1 A1 inh,-0.8,-0.3,0.2,-0.8,0.6,0.8

Filtered by structure, the entries above containing a halogen (nine)
3) Cc1cccc(N=N/C(=C\O)C(=O)c2ccc(Br)cc2)c1
10) Cc1cc(C(=O)N2CCCC(N3CCN(c4cccc(Cl)c4)CC3)C2)n(C)n1 (stereo not given)
11) Cc1ccc(-n2ncc(C(=O)Nc3cc(Cl)cc(Cl)c3)c2C2CCNCC2)cc1C
13) COc1cccc(C(=O)Nc2cc(Cl)c(O)c(Cl)c2)c1
15) CN1/C(=C\C(=O)c2cccnc2Cl)C(C)(C)c2ccccc21
17) COC(=O)c1cc(-c2ccc(Br)cc2)c2c(=O)[nH]c(=O)n(C)c2n1
19) CCCN(C(=O)CCSc1ccc(F)cc1)c1c(N)n(Cc2ccccc2)c(=O)[nH]c1=O
22) C=CCn1c[n+](CC(=O)c2ccc(Br)s2)c2ccccc21
29) Cc1cccc(-c2nc3ccccc3c(=O)n2NC(=O)c2cccnc2Cl)c1
screen / no.,3,10,11,13,15,17,19,22,29
Beta apoptosis,·,0.5,·,-13.5,11.7,6.1,-4.5,-3.6,-6.9
T cruzi inh,-13.7,5.0,54.9*,-0.6,-0.7,5.1,-7.7,9.6,-16.0
Vif A3G,0.2%,-2.6%,·,4.0%,0.1%,-2.9%,·,8.8%,·
Calb FLC,-11.9,17.4,19.0,-10.6,?,-2.1,2.4,37.6,-39.1
MLL AF4-AF9 inh,1.9,0.5,9.3,0.5,5.0,-3.7,-1.2,5.9,-2.1
LANA-H2B inh,-8.7,-2.9,·,-3.1,5.8,-2.2,-3.2,0.0,-1.0
RanGTP-Imp inh,?,-0.8,0.9,?,-0.2,-0.2,6.4,5.2,5.9
Bfl-1 A1 inh,-0.6,-1.4,·,-12.9,-3.7,0.0,0.9,0.6,0.6
